Screening data as filed in PubChem BioAssay.
A488 autofl: A488 region autofluorescence | compound autofluorescence, A488 spectral region, dye equivalency; active compounds read high | max dye equivalency, M | 59,000 compounds, 0.1% hits | AID 591; active = above 10 nM dye equivalent; inconclusive = 1 to 10 nM; inactive = 1 nM or less; about half of its hits are not listed in these tables;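 also: highest value over a series up to 38 µM; compound alone in buffer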
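Autofluorescence read at ex 480/em 540 nm after 15 min RT in 100 mM Tris pH 8.0; compound signal normalized to A488 standard series on each plate, reported as dye-equivalent concentration at each test concentration.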
A647 fluor: compound fluoresces in the A647 spectral region; Compound fluorescence, A647 channel (570/671 nm), Tris buffer; max dye-equivalent concentration, M; 59,000 tested, under 10 active; AID 592; active means above 1 µM dye equivalent; inconclusive means 0.1 to 1 µM; inactive means 0.1 µM or less;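 also: values scaled relative to a standard on each plate; highest value over a series up to 38 µM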
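Compounds pinned into 100 mM Tris pH 8.0, 15 min at room temperature, then read with 570 nm excitation/671 nm emission filters. Fluorescence normalized to an on-plate six-point Alexa 647 standard curve, giving dye-equivalent concentration per compound concentration.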
AID923: qHTS Assay for Allosteric/Competitive Inhibitors of Caspase-1: Spectroscopic Profiling in AFC Spectral Region; compound fluorescence, AFC spectral region (405/520 nm); almost no hit is shown here; Potency, µM (highest dose often 57.5 µM), for inactives: at the highest dose fluorescence increase, most hits filed as activators; 75,000 compounds, 1.1% hits; active = well fitted activation curve with a large enough effect; inconclusive = small, poorly fitted or top-dose-only effect;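 also: potency is read from the fitted curve at half-maximal effect; 0% is about no effect; scaled to a free AFC standard on each plate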
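Baseline compound fluorescence (AFC region, 405 nm ex/520 nm em) taken from the intercept of kinetic reads with 50 nM caspase-1 and 5 uM Ac-WEHD-AFC; normalized to an on-plate AFC standard curve; compounds titrated up to 57 uM.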
Resorufin autofl: resorufin region autofluorescence. Compound fluorescence, resorufin region 547/598 nm, buffer; active compounds read high. max dye-equivalent concentration, M. 59,000 compounds, 0.04% hits. AID 588; active = above 10 nM dye equivalent; inconclusive = 1 to 10 nM; inactive = 1 nM or less; a few of its hits are not listed in these tables; also: highest value over a series up to 38 µM
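Compounds in 100 mM Tris, pH 8.0, incubated 15 min at room temperature, then fluorescence read at 547 nm excitation/598 nm emission. Signal converted to dye-equivalent concentration via an on-plate six-point resorufin standard curve, per compound concentration.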
TSHR agonist: TSH receptor (human) agonism | P16473 | HEK293-CNG-TSHR cells (CNG channel as cAMP sensor), membrane potential dye, cAMP | Potency, µM (highest dose often 57.1 µM), inactives show top-dose activation, actives largely listed as activators | 73,000 compounds, 0.48% hits | AID 926; active = well fitted activation curve of enough size with the parental cells flat; inconclusive = any curve in the parental cells; inactive = parental cells flat and receptor cells flat or falling; also: potency is read from the fitted curve at half-maximal effect; % of control where 0% means no effect; weak receptor curves with flat parental cells got no call and are not listed
Target sequence (P16473 whole entry, looked up): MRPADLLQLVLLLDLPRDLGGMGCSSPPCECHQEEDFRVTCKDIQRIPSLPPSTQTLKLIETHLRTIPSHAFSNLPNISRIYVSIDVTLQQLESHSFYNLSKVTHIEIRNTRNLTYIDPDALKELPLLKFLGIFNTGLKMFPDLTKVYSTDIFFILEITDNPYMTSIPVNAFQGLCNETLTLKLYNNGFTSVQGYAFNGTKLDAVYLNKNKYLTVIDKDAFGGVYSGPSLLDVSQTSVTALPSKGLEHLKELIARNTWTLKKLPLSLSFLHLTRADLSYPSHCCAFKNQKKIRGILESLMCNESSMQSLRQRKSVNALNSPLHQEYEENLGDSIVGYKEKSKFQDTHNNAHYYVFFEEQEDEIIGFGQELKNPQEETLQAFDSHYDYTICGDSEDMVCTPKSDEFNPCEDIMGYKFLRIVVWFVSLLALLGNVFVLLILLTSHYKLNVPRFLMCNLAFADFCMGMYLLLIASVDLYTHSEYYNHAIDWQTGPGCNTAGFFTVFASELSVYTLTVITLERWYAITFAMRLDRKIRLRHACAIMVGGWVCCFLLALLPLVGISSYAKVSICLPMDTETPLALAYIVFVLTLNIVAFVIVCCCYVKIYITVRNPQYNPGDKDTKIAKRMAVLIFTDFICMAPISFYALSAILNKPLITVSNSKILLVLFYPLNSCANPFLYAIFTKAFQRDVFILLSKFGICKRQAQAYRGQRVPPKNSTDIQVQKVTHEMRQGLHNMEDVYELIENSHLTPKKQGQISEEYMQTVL
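HEK 293 cells stably expressing TSHR and a modified CNG channel, with CNG-only parental cells as counterscreen, were preloaded 60 min at room temperature with membrane potential dye containing 100 uM RO 20-1724. Compound exposure was 30 min, and depolarization was read as fluorescence at 590 nm.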
Starred values were filed as active, the others as inactive; i = inactive; ? = inconclusive; . = not tested or not shown; [ ] = remark or other dose.

Under each structure – Resorufin autofl, A647 fluor, TSHR agonist, AID923, A488 autofl
1: Cc1nnc2sc(-c3ccc(NC(=O)CSc4ccc(Cl)cc4)cc3)nn12
→ i, 1e-09, 10.3%, 3.1%, i
2: COc1cccc(NS(=O)(=O)c2ccc(S(=O)(=O)N3CCOCC3)cc2)c1
→ i, 4.6e-09, -5.5%, 0.2%, i
3: CCOc1ccc2nc(NC(=O)C(CCSC)NS(=O)(=O)c3cccs3)sc2c1 (stereo not given)
→ i, 2.97e-08, -8.9%, -1.4%, i
4: N#CC(C(=O)Nc1cccc(Cl)c1)=C1Nc2ccccc2N1
→ i, 4.32e-08, -44.1%[inhibitor], 1.1%, i
5: CC(C)CCn1c(CN2CCN(Cc3ccccc3)CC2)nc2c1c(=O)n(C)c(=O)n2C
→ i, 2.25e-08, ., -0.1%, i
6: CC1=C(C(=O)Nc2ccc(C)cc2)C(c2ccc(N(C)C)cc2)NC(=O)N1 (stereo not given)
→ ., ., -4.8%, -1.6%, .
7: O=C1CCCC(=NCc2ccco2)C1
→ i, 8.1e-09, 3.7%, 3.3%, i
8: O=C(O)/C=C\C(=O)Nc1ncn[nH]1
→ i, 3.92e-08, 2.0%[11.4 µM], 1.9%[11.5 µM], i
9: Cc1ccc(C(=O)Nc2ccccc2C(=O)NCc2ccco2)cc1S(=O)(=O)N1CCCCC1
→ i, 5.8e-09, ., 0.0%, i
10: Cn1c(CSc2nc3ccc(Br)cc3[nH]2)nc2ccccc21
→ ., ., 11.4%, 1.2%, .
11: FC(F)(F)c1ccccc1-c1ccc2ncnc(NCc3cccs3)c2c1
→ i, 3e-08, ?, 1.2%, i
12: C=C(C)C(O)/C=C/c1ccc(Br)cc1 (stereo not given)
→ ., ., 13.6%[11.4 µM], 0.5%[11.5 µM], .
13: CCC/C=C(\CCC)C(NS(=O)(=O)c1cccc2cccnc12)c1ccc(-c2ccccc2)cc1 (stereo not given)
→ ., ., -1.1%, -2.5%, .
14: CCCCOc1ccc(NC2=NC3(CCCC3)N=C(N)N2)cc1
→ i, 2.89e-08, 12.9%, 0.5%, i
15: O=C(CCn1c(=O)oc2ccccc21)Nc1nccs1
→ i, 3.08e-08, -3.9%, 0.2%, i
16: Cc1nc2cc(NC(=O)COc3ccc(C#N)cc3)ccc2n1-c1ccccc1
→ i, 4e-09, 10.8%, -0.2%, i
17: c1ccc(-c2nc[nH]c2-c2ccccc2)cc1
→ i, 3.14e-08, 6.7%, -0.9%, i
18: Cc1ccc(-c2nn3c(C)nnc3s2)cc1NCc1c(F)cccc1Cl
→ i, 4.5e-09, ?, 3.3%, i
19: CC(=O)c1sc(NC(=O)c2ccccc2F)nc1C
→ ., ., -2.9%, 1.4%, .
20: Cc1ccc(S(=O)(=O)N2CCN(C(=O)COC(=O)COc3ccccc3)CC2)cc1
→ i, 1.64e-08, -0.7%, -0.7%, i

In another format: three of the compounds above
11: FC(F)(F)c1ccccc1-c1ccc2ncnc(NCc3cccs3)c2c1
12: C=C(C)C(O)/C=C/c1ccc(Br)cc1 (stereo not given)
13: CCC/C=C(\CCC)C(NS(=O)(=O)c1cccc2cccnc12)c1ccc(-c2ccccc2)cc1 (stereo not given)
assay / compound	11	12	13
Resorufin autofl	i	.	.
A647 fluor	3e-08	.	.
TSHR agonist	?	13.6%[11.4 µM]	-1.1%
AID923	1.2%	0.5%[11.5 µM]	-2.5%
A488 autofl	i	.	.

Returning to the listing, starting seven compounds before the break.
Under each structure – Resorufin autofl, A647 fluor, TSHR agonist, AID923, A488 autofl
14: CCCCOc1ccc(NC2=NC3(CCCC3)N=C(N)N2)cc1
→ i, 2.89e-08, 12.9%, 0.5%, i
15: O=C(CCn1c(=O)oc2ccccc21)Nc1nccs1
→ i, 3.08e-08, -3.9%, 0.2%, i
16: Cc1nc2cc(NC(=O)COc3ccc(C#N)cc3)ccc2n1-c1ccccc1
→ i, 4e-09, 10.8%, -0.2%, i
17: c1ccc(-c2nc[nH]c2-c2ccccc2)cc1
→ i, 3.14e-08, 6.7%, -0.9%, i
18: Cc1ccc(-c2nn3c(C)nnc3s2)cc1NCc1c(F)cccc1Cl
→ i, 4.5e-09, ?, 3.3%, i
19: CC(=O)c1sc(NC(=O)c2ccccc2F)nc1C
→ ., ., -2.9%, 1.4%, .
20: Cc1ccc(S(=O)(=O)N2CCN(C(=O)COC(=O)COc3ccccc3)CC2)cc1
→ i, 1.64e-08, -0.7%, -0.7%, i
21: CS(=O)(=O)N1CCN(C(=O)c2ccncc2)CC1
→ i, 5.38e-08, -13.9%, 0.5%, i
22: CC(C)(C)c1ccc(C(=O)N2CCC(C(=O)NCc3ccncc3)CC2)cc1
→ i, 2.7e-08, 2.9%[11.4 µM], -0.5%, i
23: CC(=O)OCP(C)(=O)COC(C)=O
→ i, 2.84e-08, -0.3%, -1.1%, i
24: COc1ccccc1CCn1c(=O)c(-c2ccc(F)c(F)c2)nc2cncnc21
→ i, 3.19e-08, ?, 10.4%, i
25: NCC(O)COc1ccc2c(c1)OCO2 (stereo not given)
→ i, 1e-09, 4.3%, -0.6%, i
26: CC(CN1CCCCC1)OC(=O)c1ccc2c(c1)OCO2 (stereo not given)
→ i, 4.72e-08, 1.5%, -1.9%, i
27: CC(c1ccccc1)n1cc(C(=O)NCc2ccccn2)nn1 (stereo not given)
→ i, 1e-09, -3.2%, 1.8%, i
28: COCCCNc1nc2c(c(=O)n(C)c(=O)n2C)n1Cc1cccc(OC)c1
→ i, 4.4e-09, ., ., i

A portion of the library; the hit share may differ from the screen's.
